High-throughput results: PubChem, Southern Research Institute
Mtb growth: Mycobacterium tuberculosis H37Rv growth inhibition, putative kinase inhibitor library, confirmatory dose response (AID 2842); M. tuberculosis H37Rv growth inhibition; higher % means a stronger effect; some inactives read as strong as hits; one-dose inhibition, % at 10 µg/mL; IC90 in µg/mL for titrated hits; 24,000 compounds, 5.2% hits;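 active = confirmed in a dose series; inconclusive = mostly over 85% at the one dose but not retested; inactive = below 85% or not confirmed; about a fifth of its hits are not listed in these tables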;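 note: bacteria incubated one week before Alamar blue readout; 0% = bacteria only wells and 100% = bacteria with high antibiotic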
Starred values were filed as active, the others as inactive; u = inconclusive. Only part of the results is shown, so the mix of outcomes need not match the whole.

Sample of the layout:
structure | Mtb growth
Clc1ccc(CCNc2ncnc3nc[nH]c23)cc1 | 21%
Cc1c(C(=O)O)c2cc(O)ccc2n1C | 13%

This part in full (from the top)
structure | Mtb growth
Clc1ccc(CCNc2ncnc3nc[nH]c23)cc1 | 21%
Cc1c(C(=O)O)c2cc(O)ccc2n1C | 13%
COc1cccc(-c2nc(C(N)=O)c3[nH]c(=O)n(-c4ccc(C(C)(C)C)cc4)c3n2)c1 | -6%
Nc1c(C(=O)Nc2ccc(Oc3ccccc3)cc2)sc2nc3c(cc12)C(=O)CCC3 | 40%
O=C(CCc1ccccc1)Nc1sc2c(c1-c1nc3ccccc3s1)CCCC2 | -2%
Nc1nc(CSc2nc3cc([N+](=O)[O-])ccc3o2)cs1 | -6%
COc1cccc(-c2nnc(NC(=O)c3cccc(C)c3)o2)c1 | u
O=C(CSc1ncnc2c1oc1ccccc12)Nc1cc(C(F)(F)F)ccc1Cl | 3%
Cc1ccc(-c2nnc(NC(=O)Cc3cccc4ccccc34)o2)c(C)c1 | 36%
COc1cccc2sc(N3CCCC3)nc12 | 7%
Cc1ccc(S(=O)(=O)Nc2cc3c4c(c2)CC(=O)N4CCC3)cc1 | 10%
O=C(CSc1nccn(-c2ccc(F)cc2)c1=O)Nc1ccccc1F | -5%
COc1cccc(NC(=O)Cn2ccc3c(OC)cccc3c2=O)c1 | 10%
Cc1cc(C)c(C(=O)Nc2ccc(S(=O)(=O)Nc3ncccn3)cc2)c(C)c1 | -2%
Cc1ccc(-n2c(C)cs/c2=N\C(=S)Nc2ccccc2)cc1 | 6%
O=[N+]([O-])c1ccc2sc(SCc3nc4ncccn4c3Br)nc2c1 | 9%
O=C1c2oc3ccc(Cl)cc3c(=O)c2C(c2cccc(Cl)c2)N1Cc1cccnc1 (configuration not stated) | -6%
COc1ccc(-c2nnc(NC(=O)CSc3nncn3C)s2)c(OC)c1 | 3%
O=C(CSc1nc2[nH]ncc2c(=O)[nH]1)N1CCOCC1 | 8%
O=C(Nc1nnc(-c2cc(Cl)ccc2Cl)o1)c1ccc(Cl)cc1Cl | 0.74µg/mL*
Cn1c(=O)[nH]c(=O)c2c1nc(N1CCCCC1)n2CCSc1nc2ccccc2s1 | 6%
Cc1ccc(SCC(=O)Nc2sc3c(c2C(N)=O)CCN(C)C3)cc1 | -1%
Cc1ccc(-c2csc(NC(=O)c3ccc(S(=O)(=O)N(C)c4ccccc4)cc3)n2)cc1 | 8%
COc1ccccc1N1C(=O)N(c2cccc(C(F)(F)F)c2)C2CS(=O)(=O)CC21 (configuration not stated) | 2%
O=C(Cn1cnc2c(nnn2-c2ccc(Cl)cc2)c1=O)c1ccc(Cl)cc1 | -9%

structure | Mtb growth
O=C(NNc1nc2c(F)cccc2s1)C1COc2ccccc2O1 (configuration not stated) | 8%
O=C(CSc1nc2c([nH]c3ccccc32)c(=O)n1-c1cccc(Cl)c1)NCc1ccc(F)cc1 | 25%
COc1ccc(C2NC(=O)NC3=C2C(=O)N(C)C3)cc1OC (configuration not stated) | -1%
O=C(CSc1ccc2nnc(-c3cccs3)n2n1)NCc1ccc(F)cc1 | 24%
COCCN(CCOC)S(=O)(=O)c1ccc(C(=O)Nc2ccc3c(c2)C(=O)NC3=O)cc1 | -1%
CNCC(=O)C12CC3CC(C1)CC(c1ccccc1)(C3)C2 | -2%
Cc1ccc(C2C3=C(COC3=O)Nc3c2c(=O)[nH]c(=O)n3CC(C)C)cc1 (configuration not stated) | -5%
C=CCNC(=O)COc1cccc2c1CCNC2=O | -3%
COc1cccc(NC(=O)NC2CC(=O)N(c3ccc4c(c3)OCCO4)C2)c1 (configuration not stated) | -1%
CCOc1ccc(C(=O)Oc2cc(N)n(S(=O)(=O)c3ccc(C)cc3)n2)cc1 | -3%
CSc1nc2c(c(=O)[nH]c(=O)n2C)n1CC(O)COc1ccc(Cl)cc1 (configuration not stated) | 20%
O=C(N=C1C(Cl)=C(Cl)C(=O)c2ccccc21)c1ccccc1 | 8%
COc1ccc(CNC(=O)c2c(O)nc3sccn3c2=O)cc1 | 1%
Cc1ccccc1CN1CCN(c2nc3c(c(=O)[nH]c(=O)n3C)n2CCC(C)C)CC1 | 65%
COc1cc(NC(=O)CSC2=NS(=O)(=O)c3ccccc3N2)cc(OC)c1 | -7%
Cc1cc(OC(=O)c2cccs2)c([N+](=O)[O-])c(=O)[nH]1 | 6%
COC(=O)c1ccc(C(=O)Nc2c(C(N)=O)oc3ccccc23)cc1 | -8%
CCOc1ccccc1/C=C/c1nc2ccccc2[nH]c1=O | 17%
Cc1cc2cc(CCNC(=O)C(C)C)c(=O)[nH]c2cc1C | 3%
Cc1ccc(S(=O)(=O)N(C)Cc2ccccc2)cc1C(=O)O | -4%
O=C(Nc1nccs1)c1c(O)c2ccccc2[nH]c1=O | -19%
Nc1ncnc(N(Cc2ccccc2)c2ccccc2)c1[N+](=O)[O-] | -8%
COc1ccc(S(=O)(=O)c2cn(CC(=O)Nc3ccc(F)cc3)c3ccccc3c2=O)cc1 | 2%
NC(=O)C1CCN(c2ncnc3scc(-c4ccc(Cl)cc4)c23)CC1 | 15%
COc1cc2ccccc2cc1C(=O)Nc1nc2ccc3sc(C)nc3c2s1 | 3%

structure | Mtb growth
CCOC(=O)c1ccc(NC(=O)COc2cccc3c2CCN(CC)C3=O)cc1 | 76%
Nn1c(SCC(=O)Nc2ccc(Cl)c(Cl)c2)nnc1-c1ccncc1 | -5%
O=C(CSc1ccc2nnc(CCNC(=O)c3ccc(F)cc3)n2n1)Nc1ccc(F)cc1 | 10%
COc1ccc(C(=O)CSc2ccc3nnc(-c4ccc(Cl)cc4)n3n2)cc1 | -2%
COC(=O)Cn1c(=O)c2c(nc3n(-c4cc(Cl)ccc4C)c(-c4ccccc4)cn23)n(C)c1=O | -15%
O=C1CN(C(=O)c2cccs2)c2ccccc2N1 | -5%
O=C(NCc1ccc(F)cc1)C(=O)Nc1cc2c3c(c1)CCC(=O)N3CCC2 | 7%
COc1ccc(C(=O)Nc2c(N)nc(SCC(=O)Nc3cccc(Cl)c3)[nH]c2=O)cc1 | -7%
CCN(CC)S(=O)(=O)c1ccc(C(=O)Nc2sc3c(c2C(N)=O)CC(C)(C)NC3(C)C)cc1 | 4%
C/C(=N\NC(=O)c1cc(-c2cccs2)[nH]n1)c1ccc(O)cc1 | 61%
CC1(C)CC(=O)c2sc(Nc3nc4c(F)cccc4s3)nc2C1 | 49%
O=C(Nc1nnc(-c2ccc(Cl)cc2Cl)s1)c1cccc(Cl)c1 | 6%
CCOc1ccc(-n2ccnc2SCC(=O)Nc2nnc(C)s2)cc1 | 0%
O=c1[nH]c(N/N=C/c2c[nH]c3ccccc23)nnc1-c1ccccc1 | 18%
CC1CCCN(c2nc3c(c(=O)[nH]c(=O)n3C)n2CCSc2nc3ccccc3s2)C1 (configuration not stated) | 28%
Cc1sc2ncn(CC(N)=O)c(=O)c2c1-c1ccc(Cl)cc1 | 9%
COC(=O)CSC(C)C(=O)Nc1nnc(C(C)C)s1 (configuration not stated) | -2%
Cc1cc(C)c(C)c(-c2nnc(NC(=O)c3ccc(-c4ccccc4)cc3)s2)c1C | 11%
Cc1ccc2oc3c(c(=O)c2c1)C(c1cccnc1)N(c1ccccn1)C3=O (configuration not stated) | -1%
O=C(COC(=O)c1ccc2c(c1)C(=O)N(CCCN1CCOCC1)C2=O)c1ccc(Cl)cc1 | -9%
Nc1ncnc(NCc2ccco2)c1[N+](=O)[O-] | -4%
CC(=O)c1cccc(Nc2nc(-c3ccc([N+](=O)[O-])cc3)nc3ccccc23)c1 | -7%
O=C(COc1ccc(Cl)cc1)Nc1nnc(-c2ccccc2Cl)s1 | 11%
O=C(CSc1ccccc1)Nc1nnc(-c2ccc(F)cc2)s1 | -13%
COc1ccc(C2=CC(c3ccc(C)cc3)n3ncnc3N2)cc1OC (configuration not stated) | 48%

structure | Mtb growth
Cc1cc(Cl)ccc1Nc1nc(Nc2cccc(F)c2)nc2nccnc12 | 0%
Cc1nc(Cn2cnc3ccccc32)no1 | -3%
CCOC(=O)c1nn(-c2ccc(Cl)cc2)c(=O)c2c(NC(=O)C3CC3)scc12 | 9%
CCc1cnc2c(c1OC)c(=O)n(CC(=O)Nc1cc(C)on1)c(=O)n2C | -2%
O=C(CSc1nc2sc3c(c2c(=O)n1Cc1ccco1)CCC3)Nc1nccs1 | 24%
Cc1cccc(CSc2nc(-c3ccc(F)cc3)nc3c2Cc2c(CO)cnc(C)c2O3)c1 | 5%
COc1ccc(OC)c(NC(=O)c2oc3ccccc3c2NC(=O)CCc2ccccc2)c1 | -3%
Cc1cc(NC(=O)c2cccs2)nc2c1c(=O)oc1ccccc12 | -14%
COc1ccc(CCNC(=O)Cc2cc(=O)[nH]c(=O)[nH]2)cc1OC | -12%
CCCc1cc(=O)[nH]c2nnc(SCC(=O)Nc3ccc4c(c3)OCCO4)n12 | 0%
COc1ccc(Cn2cc(S(=O)(=O)c3ccc(F)cc3)c(=O)c3cc(OC)c(OC)cc32)cc1 | 1%
Cc1ccc(-c2ccc(/C=C3\SC(=S)N(CC(=O)O)C3=O)o2)cc1 | -10%
Cc1nc2c(ccc3nc(NC(=O)COc4ccc(Cl)cc4)sc32)s1 | 3%
O=C1CCc2cc(S(=O)(=O)NCc3ccco3)cc3c2N1CC3 | -2%
CCOc1ccccc1NC(=O)c1oc2ccccc2c1NC(=O)CCCl | -11%
CCCCCSc1ncnc2nc[nH]c12 | 34%
O=C(Nc1ccc(S(=O)(=O)Nc2nccs2)cc1)c1cccc(Br)c1 | 17%
O=C(CCc1ccccc1)Nc1c(C(=O)Nc2ccc([N+](=O)[O-])cc2)oc2ccccc12 | 17%
CCOC(=O)c1nn(-c2ccc(OC)cc2)c(=O)c2c(NC(=O)c3ccccc3C)scc12 | -5%
Cc1ccc(-n2c(=O)[nH]c3c(C(N)=O)nc(-c4ccccc4Cl)nc32)cc1C | 12%
COc1ccc(OC)c(NC(=O)CSc2nnc(C)c(=O)n2N)c1 | -8%
O=S(=O)(NCCc1csc(-c2ccccc2)n1)c1ccccc1F | 9%
CC(=O)c1ccc(C(=O)Nc2nc3cc(C)c(C)cc3s2)cc1 | 11%
Cc1ccc(C)c2[nH]c(=O)c(CCNC(=O)/C=C\c3ccccc3)cc12 | 6%
O=C(COc1ccc(Cl)cc1)Nc1nc2c(cc3c4c(cccc42)CC3)s1 | -2%

structure | Mtb growth
Cc1cc(C)c2c(N)c(C(=O)Nc3ccccc3O)sc2n1 | -7%
CC(=O)c1ccc(NC(=O)CSc2ccc3nnc(-c4ccccc4)n3n2)cc1 | 1%
CCOC(=O)c1nn(-c2ccc(C(F)(F)F)cc2)c(=O)c2c(NC(=O)COc3ccccc3)scc12 | 12%
OC(CNCc1ccco1)Cn1c2ccc(Cl)cc2c2cc(Cl)ccc21 (configuration not stated) | 1.7µg/mL*
Cc1cccc(C(=O)Nc2nnc(-c3cccnc3)o2)c1 | 8.9µg/mL*
COc1cccc(-c2ccc(SCC(=O)Nc3cc(Cl)ccc3OC)nn2)c1 | 63%
CS(=O)(=O)c1ccc(SCC(=O)OCC(F)(F)F)c([N+](=O)[O-])c1 | -5%
COc1ccc(NC(=O)CSc2nnc3ccc(-c4ccncc4)nn23)cc1 | -9%
Nc1nc(SCC(=O)Nc2cc(C(F)(F)F)ccc2Cl)[nH]c(=O)c1NC(=O)c1ccccc1 | -4%
COc1cccc(-c2ccc3nnc(SCC(=O)Nc4ccc(C)c(F)c4)n3n2)c1 | -11%
Fc1ccc(Nc2nc(N3CCOCC3)nc3nccnc23)cc1 | -9%
COc1ccc2nc(-c3ccc(OC)c(NC(=O)c4cccc(C(F)(F)F)c4)c3)cn2n1 | -14%
CCc1cc2c(NC(Cc3c[nH]c4ccccc34)C(=O)O)ncnc2s1 (configuration not stated) | 1%
O=C(CCn1cnc(-c2ccccc2)c1-c1ccccc1)N/N=C/c1ccco1 | -2%
Cc1cccc(Cn2cc(C(=O)c3ccccc3)c(=O)c3cc(F)ccc32)c1 | 37%
Fc1ccccc1Nc1nc(=S)[nH]c2ccccc12 | -7%
COc1cccc(C2CC(c3cccs3)=NN2C(=O)CSCc2ccco2)c1OC (configuration not stated) | 15%
COc1cccc(C(=O)Nc2sc3c(c2C(N)=O)CCCCC3)c1 | 23%
O=c1c2cnn(-c3cccc(Cl)c3)c2ncn1Cc1ccc(Br)cc1 | -4%
O=C(CN1C(=O)c2ccccc2C1=O)Nc1nc(-c2ccc(Cl)c(Cl)c2)cs1 | -3%
CC(=O)c1ccc(NC(=O)CSc2nnc3ccc(-c4cccnc4)nn23)cc1 | 4%
O=C1c2cccc3cccc(c23)C(=O)N1CCc1ccc(S(=O)(=O)Nc2ccc(F)cc2)cc1 | -1%
Cc1nc(SCC(=O)c2cccc3ccccc23)n[nH]1 | -3%
COc1ccc(S(=O)(=O)c2cn(CC(=O)Nc3ccccc3C)c3ccccc3c2=O)cc1 | 10%
Cn1c(=O)[nH]c(=O)c2c1nc(N1CCOCC1)n2CCSc1nnnn1-c1ccccc1 | 2%

Individual results from the entries so far.
Mtb growth, COc1cccc(C(=O)Nc2sc3c(c2C(N)=O)CCCCC3)c1 : 23%
Mtb growth, COc1ccc(NC(=O)CSc2nnc3ccc(-c4ccncc4)nn23)cc1 : -9%
Mtb growth, O=C(CN1C(=O)c2ccccc2C1=O)Nc1nc(-c2ccc(Cl)c(Cl)c2)cs1 : -3%
Mtb growth, COc1ccc(S(=O)(=O)c2cn(CC(=O)Nc3ccccc3C)c3ccccc3c2=O)cc1 : 10%
Mtb growth, CS(=O)(=O)c1ccc(SCC(=O)OCC(F)(F)F)c([N+](=O)[O-])c1 : -5%
Mtb growth, Cc1cccc(C(=O)Nc2nnc(-c3cccnc3)o2)c1 : 8.9µg/mL*

New compounds follow.
structure | Mtb growth
Cn1cc(S(=O)(=O)CC(=O)Nc2cc(C(F)(F)F)ccc2Cl)c2ccccc21 | 96%
COc1cccc(C(=O)NCCSc2ncc(-c3ccccc3)[nH]2)c1 | 37%
CCN1C(=O)c2cccc3c(S(=O)(=O)Nc4ccccn4)ccc1c23 | -20%
O=C(CSc1nnc2[nH]c(=O)ccn12)NCc1ccc2c(c1)OCO2 | -8%
